# Source: PubChem BioAssay (ICCB-Longwood Screening Facility, Harvard Medical School)
# GIV-Gai inh: inhibitors of GIV peptide binding to Galpha-i3, primary screen, biochemical, fluorescence polarization, FITC-GIV GBA peptide, rat Galphai3. Guanine nucleotide-binding protein G(i) subunit alpha-3 (Rattus norvegicus), P08753. 90 min; active compounds read low; scaled: aluminum fluoride 0%, vehicle 100%. percent of control (FP), % (concentration not given with the values). 210,000 tested, 0.42% active. AID 1224905, 2016;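 active = replicate mean at 85% of control or lower, very high polarization wells dropped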;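 also: wells of about 15 µL received 100 nL stock; the first replicate is given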
# Target sequence (P08753 whole entry, looked up): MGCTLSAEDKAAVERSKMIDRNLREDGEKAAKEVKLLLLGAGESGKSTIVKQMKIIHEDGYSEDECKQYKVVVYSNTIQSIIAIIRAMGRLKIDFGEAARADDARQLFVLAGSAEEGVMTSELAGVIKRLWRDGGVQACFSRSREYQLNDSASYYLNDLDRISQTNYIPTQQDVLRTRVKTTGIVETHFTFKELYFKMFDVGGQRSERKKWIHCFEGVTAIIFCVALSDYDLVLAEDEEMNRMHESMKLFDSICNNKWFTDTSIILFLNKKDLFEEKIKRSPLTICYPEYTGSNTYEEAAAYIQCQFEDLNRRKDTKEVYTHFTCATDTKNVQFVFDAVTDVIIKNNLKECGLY
# Sa growth inh: S. aureus growth inhibition at 42 and 30 °C, primary screen, LtaS inhibitor project, RN4220, two temperatures. OD600, 20 h, 42 °C; active compounds read low. AID 720641, 2013. relative growth, % (concentration not given with the values). 170,000 tested, 0.53% active;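 active = growth at 42 °C up to 50% and 20 or more points under that at 30 °C, or under 10% at both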;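 also: 300 nL library stock went into each well; scaled to the means of positive and negative controls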
# HCMV UL50-53 inh: inhibitors of HCMV UL50-UL53 interaction, biochemical, HTRF; normalized percent inhibition; 190,000 tested, 0.15% active; inhibition, % (concentration not given with the values);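 active = both replicates at 50% or more, plus weaker picks with an unusually low signal ratio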;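 also: stock transfer was 100 nL into about 20 µL; 0% = negative control wells and 100% = wells with untagged competitor protein; inactives centre near -12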
# Sa growth inh second temp: recorded beside Sa growth inh, whose call it bears; relative growth, %; measured here: growth at 30 °C;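 optical density after 20 h as mean of two plates; 100% = untreated growth and lower means inhibition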
# Active calls of the source: *; / = no result given; & = joins results of further samples.
1: C=CCn1c(=N)n(CC(O)COc2cccc(C)c2)c2ccccc21 (stereo unspecified)
2: COCc1nc2cccnc2n1C1CCN(C(=O)Nc2ccsc2C(=O)OC)CC1
3: Cc1ccccc1N(C)S(=O)(=O)c1ccc2[nH]cc(C(=O)NCCC(C)C)c(=O)c2c1
4: CCOc1ccc(OCCSc2nnnn2-c2ccccc2)cc1
5: Cc1ccc(NC(=O)c2ccc(C)c(S(=O)(=O)N3CCCCCC3)c2)cc1
6: COC(=O)C(Cc1ccccc1)NC(=O)c1cc(-c2ccc3c(c2)OCCO3)oc1C (stereo unspecified)

compound no.,1,2,3,4,5,6
HCMV UL50-53 inh,-31,2,/,/,/,-15
GIV-Gai inh,104,101,102,99,105,/
Sa growth inh,93,/,107,86,108,100
Sa growth inh second temp,74,/,83,79,92,78

7: Cc1ccc(Cn2ccnc2SCC(=O)NCc2ccc(F)cc2)cc1
8: Nc1nc2ccc(C(=O)OC3CCCCC3)cc2s1
9: Cc1ccc(C)n1-c1oc(-c2ccco2)c(-c2ccco2)c1C#N
10: CC1CC(C)CN(CCCNC(=O)Cn2c3ccccc3c3cn[nH]c(=O)c32)C1 (stereo unspecified)
11: O=C(/C=C/c1ccco1)Nc1ccc(S(=O)(=O)N2CCCCC2)cc1
12: CSc1n[nH]c(NS(=O)(=O)c2ccccc2Cl)c1-c1ccccn1

compound no.,7,8,9,10,11,12
HCMV UL50-53 inh,/,7,-10,/,-13,-12
GIV-Gai inh,101,/,121,101,133,107
Sa growth inh,106,84,55,118,92,119
Sa growth inh second temp,92,98,86,91,90,71

13: Cc1ccc(C)c(-c2nnc(NC(=O)c3ccc(S(=O)(=O)N4CCc5ccccc54)cc3)o2)c1
14: COc1ccc(S(=O)(=O)N(Cc2ccccc2)Cc2nc3ccccc3c(=O)[nH]2)cc1
15: CC(C)(C)C(=O)NC1CCN(S(=O)(=O)c2ccccc2C(=O)O)CC1
16: Oc1ccc(/C=C/c2nc(-c3ccccc3O)n(-c3ccccc3)n2)c(O)c1
17: CC(C)OC(=O)c1sc2nc3c(cc2c1N)C(=O)CCC3
18: CCc1ccccc1S(=O)(=O)Cc1ccc(C(=O)NCc2ccc(Cl)cc2)o1

compound no.,13,14,15,16,17,18
HCMV UL50-53 inh,-24,0,4,-27,-15,-27
GIV-Gai inh,106,102,103,102,107,108
Sa growth inh,1.9*,104,97,82,102,94
Sa growth inh second temp,1.3*,84,87,58,78,78

19: CCC(=O)Nc1ncc2c(n1)CC(c1ccc(N(C)C)cc1)CC2=O (stereo unspecified)
20: CC1CCCCN1C(=O)CSc1nnc(-c2cccc(Cl)c2)o1 (stereo unspecified)
21: Oc1c(C(c2ccc(Cl)cc2)N2CCC3(CC2)OCCO3)sc2nc(-c3ccco3)nn12 (stereo unspecified)
22: Cc1[nH]nc2c1C(c1ccc3ccccc3c1)CC(=O)N2 (stereo unspecified)
23: Cn1ccnc1SCC(=O)Nc1ccc(S(N)(=O)=O)cc1
24: O=C(O)C1CCCN(S(=O)(=O)Cc2ccccc2)C1 (stereo unspecified)

compound no.,19,20,21,22,23,24
HCMV UL50-53 inh,-36,-5,/,/,/,-16
GIV-Gai inh,102,104,102,101,103,98
Sa growth inh,105,85,97,110,103,101
Sa growth inh second temp,98,85,96,84,90,85

# Next part (four carried over from the part before).
21: Oc1c(C(c2ccc(Cl)cc2)N2CCC3(CC2)OCCO3)sc2nc(-c3ccco3)nn12 (stereo unspecified)
22: Cc1[nH]nc2c1C(c1ccc3ccccc3c1)CC(=O)N2 (stereo unspecified)
23: Cn1ccnc1SCC(=O)Nc1ccc(S(N)(=O)=O)cc1
24: O=C(O)C1CCCN(S(=O)(=O)Cc2ccccc2)C1 (stereo unspecified)
25: C=CCNC(=O)c1cc(-c2ccccc2)on1
26: O=C(CCCCCN1C(=O)C2C3C=CC(C3)C2C1=O)Nc1nccs1 (stereo unspecified)
27: COc1ccc(C2=NN(C(=O)c3ccc(C)cc3)CC2)cc1
28: O=C(c1cccs1)C1CCCCC1
29: COc1ccccc1NC(=O)CN(c1ccc(C(C)C)cc1)S(=O)(=O)c1c(C)noc1C
30: CCOC(=O)c1sc(NC(=O)/C=C/c2ccc(C(C)C)cc2)c(C(=O)OCC)c1C

compound no.,21,22,23,24,25,26,27,28,29,30
HCMV UL50-53 inh,/,/,/,-16,3,-31,-43,-3,-33,-32
GIV-Gai inh,102,101,103,98,101,96,115,99,107,103
Sa growth inh,97,110,103,101,98,90,85,104,89,104
Sa growth inh second temp,96,84,90,85,77,84,84,90,88,92

31: O=C(CN1C(=O)S/C(=C\c2ccc(Cl)cc2)C1=O)Nc1cccnc1
32: O=C(COc1ccc(Cl)cc1)Nc1c(-c2ccccc2)nc2sccn12
33: CS(=O)(=O)N(Cc1cc2ccccc2[nH]c1=O)c1ccccc1
34: COc1ccc(-n2nc(-c3ccccc3)cc2Nc2nc(-c3ccc4c(c3)NC(=O)CO4)cs2)cc1
35: O=C(CNC(=O)Nc1ccc(Cl)c(Cl)c1)NC1CC1
36: CC1CC(=O)c2cnc(N3CCOCC3)nc2C1 (stereo unspecified)

compound no.,31,32,33,34,35,36
HCMV UL50-53 inh,/,-14,/,34,38,-1
GIV-Gai inh,95,/,103,103,/,108
Sa growth inh,112,156,118,/,90,104
Sa growth inh second temp,95,86,94,/,97,100

37: Cc1nn2c(=O)cc(COC(=O)C3CCCCC3)nc2s1
38: Cc1ccc(Cn2c(CCNC(=O)C(C)C)nc3ccccc32)cc1
39: CCOC(=O)Nc1cccc2nsnc12
40: O=c1ccc(-c2ccc(S(=O)(=O)NCCSCc3ccco3)s2)n[nH]1
41: Cc1cc(-c2ccc(Cl)cc2)c2c(=O)[nH][nH]c2n1
42: Cc1ccccc1Nc1nnc(SCC(=O)NC2CCC(C)CC2)s1 (stereo unspecified)

compound no.,37,38,39,40,41,42
HCMV UL50-53 inh,-9,5,-71,-112,-33,16
GIV-Gai inh,100,106,/,102,/,/
Sa growth inh,/,107,90,98,83,120
Sa growth inh second temp,/,89,86,74,46,98

43: Cn1cc(S(=O)(=O)NCCc2ccccc2)c(=O)n(C)c1=O
44: O=C(NC1CCCC1)c1ccc(CS(=O)(=O)c2c(Cl)cccc2Cl)o1
45: COc1ccc(N)cc1CN1CCn2c(nc3ccccc32)C1
46: CC(C)n1nnc2cc(S(=O)(=O)N3CCCC3C(=O)NCCN(C)C3CCCCC3)ccc21 (stereo unspecified)
47: COc1ccc(/C=N/n2cnc3c([nH]c4ccc(F)cc43)c2=O)cc1
48: N#Cc1ccccc1OCC(=O)N1CCN(c2ccccc2)CC1

compound no.,43,44,45,46,47,48
HCMV UL50-53 inh,-30,/,-22,-15,/,-11
GIV-Gai inh,104,96,104,103,98,105
Sa growth inh,100,80,/,/,108,109
Sa growth inh second temp,84,77,/,/,93,75

# Pulled by compound from above, 4 records:
13: Cc1ccc(C)c(-c2nnc(NC(=O)c3ccc(S(=O)(=O)N4CCc5ccccc54)cc3)o2)c1
36: CC1CC(=O)c2cnc(N3CCOCC3)nc2C1 (stereo unspecified)
35: O=C(CNC(=O)Nc1ccc(Cl)c(Cl)c1)NC1CC1
18: CCc1ccccc1S(=O)(=O)Cc1ccc(C(=O)NCc2ccc(Cl)cc2)o1

compound no.,13,36,35,18
HCMV UL50-53 inh,-24,-1,38,-27
GIV-Gai inh,106,108,/,108
Sa growth inh,1.9*,104,90,94
Sa growth inh second temp,1.3*,100,97,78

# Continued:
49: Cc1nc2ccccn2c1-c1ccnc(SCC(=O)Nc2ccc(C(C)C)cc2)n1
50: CC(=O)Nc1c(C)nn(-c2ccccc2)c1N1CCC(C(=O)Nc2ccc(F)cc2Cl)CC1
51: COc1ccccc1OCC(=O)Nc1c(C(=O)c2ccc(F)cc2)oc2ccccc12
52: O=C(NCCc1ccc(Cl)cc1)c1ccc2c(=O)n(-c3ccccc3)c(=O)[nH]c2c1
53: COc1ccc(N2CCN(C(=O)c3nc4ccccc4nc3N3CCCC3)CC2)cc1
54: O=c1[nH][nH]c(=O)n1/N=C/C=C\c1ccccc1

compound no.,49,50,51,52,53,54
HCMV UL50-53 inh,-25,/,-18,/,-4,-60
GIV-Gai inh,99,105,106,104,103,103
Sa growth inh,96,85,76,109,/,102
Sa growth inh second temp,85,89,92,84,/,104

# One compound at a time, as listed above. Values in the order: HCMV UL50-53 inh | GIV-Gai inh | Sa growth inh | Sa growth inh second temp
# Record of `O=C(COc1ccc(Cl)cc1)Nc1c(-c2ccccc2)nc2sccn12` → -14 | / | 156 | 86
# Record of `O=c1[nH][nH]c(=O)n1/N=C/C=C\c1ccccc1` → -60 | 103 | 102 | 104

# Going on with the list.
55: CCCCNC(=O)CCCN1C(=O)CCn2nc(-c3cccn3C)cc21
56: Cc1oc2nc[nH]c(=O)c2c1C(=O)OC(C)C(=O)N1CCOCC1 (stereo unspecified)
57: O=C(COc1ccc2c(=O)c(Oc3ccccc3Br)coc2c1)OC1CCCCC1
58: CCOC(=O)c1c(C)cc(C)[nH]c1=O
59: CCCn1c(SCC(=O)c2ccccc2)nnc1C(C)C
60: CN1CCN(C(=O)/C(=C/c2cn(C)c3ccccc23)NC(=O)c2ccco2)CC1

compound no.,55,56,57,58,59,60
HCMV UL50-53 inh,/,-5,-12,-4&-8,9,-12
GIV-Gai inh,103,/,104,97,101,104
Sa growth inh,94,105,/,100&109,80,106
Sa growth inh second temp,85,87,/,93&89,99,84

61: COC(=O)c1ccc(C(=O)Nc2ccccc2-c2nc3ccccc3[nH]2)cc1
62: CC(=O)Nc1ccc(C(=O)NCCN2CCOCC2)cc1
63: O=C(NNc1nc2c(F)cccc2s1)c1nc2ccccc2s1
64: CCOc1c(C)cnc2c1c(=O)n(CC(=O)NCc1ccc3c(c1)OCO3)c(=O)n2C
65: Cc1cccc(C)c1NC(=O)Cn1nnc(S(=O)(=O)c2ccccc2)c1N
66: Cc1nc2ccccc2n1CCNC(=O)c1ccc(S(=O)(=O)N(C)C)cc1

compound no.,61,62,63,64,65,66
HCMV UL50-53 inh,1&-14,-3,-28,7,-22,-18
GIV-Gai inh,100,101,99,103,104,/
Sa growth inh,84,122,90,/,107,78
Sa growth inh second temp,84,100,99,/,93,88

67: CCC(=O)N1CCc2cc(Br)cc(S(=O)(=O)N3CCCC(C(=O)Nc4ccc(CC)cc4)C3)c21 (stereo unspecified)
68: COC(=O)c1sc(NC(=O)CSc2ncnc3sc(C)c(C)c23)c(C(=O)OC)c1C
69: CC(NC(=O)c1ccc(F)cc1)C(=O)O (stereo unspecified)
70: O=C(COc1ccc(Cl)cc1)NCCc1csc(-c2cccc(F)c2)n1
71: O=C(NC1CCCCC1)C1CCN(S(=O)(=O)c2ccccc2)CC1
72: Cc1ccc(-n2[nH]c(=O)c(N=O)c2O)cc1C

compound no.,67,68,69,70,71,72
HCMV UL50-53 inh,10,-10,11,/,11,/
GIV-Gai inh,105,100,104,116,102,85*
Sa growth inh,110,/,70,110,104,92
Sa growth inh second temp,96,/,108,97,100,79

# 4 entries already listed, ordered by the number in GIV-Gai inh, smallest number first.
nr	Molecule	GIV-Gai inh	Sa growth inh second temp
72	Cc1ccc(-n2[nH]c(=O)c(N=O)c2O)cc1C	85*	79
68	COC(=O)c1sc(NC(=O)CSc2ncnc3sc(C)c(C)c23)c(C(=O)OC)c1C	100	/
69	CC(NC(=O)c1ccc(F)cc1)C(=O)O (stereo unspecified)	104	108
70	O=C(COc1ccc(Cl)cc1)NCCc1csc(-c2cccc(F)c2)n1	116	97

# Continued.
73: CCOc1ccccc1CNC(=O)C1CCN(c2nnc(C)c3c(C)n(-c4ccc(C)cc4)nc23)CC1
74: C=CCNC(=O)Nc1ccc2oc(C)nc2c1
75: O=C(O)CN1C(=O)/C(=C/c2cccc(Oc3ccc([N+](=O)[O-])cc3[N+](=O)[O-])c2)SC1=S
76: Cc1ccc(CN2CCN(C3CCN(C(=O)Nc4ccc(C)cc4Cl)CC3)C(=O)C2=O)cc1

compound no.,73,74,75,76
HCMV UL50-53 inh,/,0,-71,/
GIV-Gai inh,111,100,106,94
Sa growth inh,91,87,/,115
Sa growth inh second temp,93,86,/,95

# Random draw from the library. About 0.85% of those tested had a hit in this group.
